ClpP mod: qHTS Assay for Activators of ClpP; purified B. subtilis ClpP, FRET peptide cleavage, 20 min; hit rate 1.9% among 340,000; ATP-dependent Clp protease proteolytic subunit (Bacillus subtilis (strain 168)), P80244; Potency, µM (highest dose often 57.5 µM), inactives show at the top dose activity change, negative = active; active = well fitted falling curve with a large enough effect; inconclusive = small, poorly fitted or top-dose-only effect; inactive = no such curve, though single readings can be large or run the other way; further: potency means the concentration at half of the fitted maximal effect; the source files actives as falling curves though it sought activators and does not explain the sign; nearly all actives have a fitted effect of over 65% in size; many hits overshoot -100%
Target sequence (P80244 whole entry, looked up): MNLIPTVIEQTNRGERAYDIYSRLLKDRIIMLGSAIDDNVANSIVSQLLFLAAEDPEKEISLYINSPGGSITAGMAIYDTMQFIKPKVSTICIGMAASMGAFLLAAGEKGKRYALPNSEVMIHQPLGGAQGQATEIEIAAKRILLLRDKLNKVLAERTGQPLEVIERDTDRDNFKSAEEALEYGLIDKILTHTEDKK
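FRET quenching reversal measured ClpP activation: 10 microg/mL B. subtilis ClpP at pH 8 with the FRET-FV decapeptide, read at 430 nm after 320 nm excitation. The 20-min minus 0-min signal was scaled between DMSO/no-enzyme wells and ADEP (5.8 microM final).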
gsp ag: gsp mutant agonism | Potency, µM (top dose mostly 76.9 µM), without a hit: top-dose activation (cAMP increase), most hits filed as activators | hit rate 0.13% among 340,000 | AID 624287 | gsp mutant cells, cAMP HTRF, 30 min; control for the full effect not named in the record; active = well fitted activation curve with a large enough effect; inconclusive = small, poorly fitted or top-dose-only effect, or another doubt; inactive = no such curve, though single readings can be large or run the other way; cell line not stated here;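 further: phosphodiesterase inhibitor Ro 20-1724 added with compounds to block cAMP breakdown; potency means the concentration at half of the fitted maximal effect; nearly all actives have a fitted effect of over 60% in size; about a fifth of the inactives were tested at one dose only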
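Cells in DMEM/10% FBS with G418 were pretreated with compounds in DMSO plus […] (300 uM stock) for 30 min at 37C. cAMP was measured by HTRF (cAMP-d2 plus anti-cAMP antibody-K) after 30 min at room temperature.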
gsp antagonist: antagonists of gsp mutant (McCune-Albright syndrome); gsp-mutant cells, cAMP HTRF, 30 min; control for the full effect not named in the record; Potency, µM (highest dose often 76.9 µM), inactives show top-dose activity change, negative = inhibition, most hits filed as inhibitors; hit rate 0.4% among 340,000; active = falling curve of any shape with a large fitted effect; inconclusive = falling curve, mostly with a smaller effect; inactive = flat or rising curve; cell line not stated here;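 further: intracellular cAMP measured with PDE inhibitor Ro 20-1724 present during compound exposure; potency means the concentration at half of the fitted maximal effect; on the % scale 0 is the no-effect control and ±100 the full control effect; nearly all actives have a fitted effect of over 65% in size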
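HTRF cAMP measurement after 30 min RT detection following 30 min, 37C compound treatment alongside […] (added as 300 uM solution) in G418-selected cells seeded at 2000/well and grown 16–24 h.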
TRPML1 blocker: inhibitors of human TRPML1 channel; AID 624415; hit rate 0.02% among 390,000; TRPML1-inducible cells, Ca2+ dye fluorescence, FDSS; stronger effect = lower value; inhibition of EC80 agonist-evoked calcium signal; activity change, negative = inhibition, % (test concentration not listed); Q9GZU1; in the data active means activity change below about -50%; inconclusive means about -30% to -50%; inactive means above about -30%;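 further: stimulus is agonist 54-4 at its EC80 concentration; on the % scale 0 is the no-effect control and ±100 the full control effect; compound concentration not given in the record; the text of the record puts the active cut at -80%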
Target sequence (Q9GZU1 whole entry, looked up): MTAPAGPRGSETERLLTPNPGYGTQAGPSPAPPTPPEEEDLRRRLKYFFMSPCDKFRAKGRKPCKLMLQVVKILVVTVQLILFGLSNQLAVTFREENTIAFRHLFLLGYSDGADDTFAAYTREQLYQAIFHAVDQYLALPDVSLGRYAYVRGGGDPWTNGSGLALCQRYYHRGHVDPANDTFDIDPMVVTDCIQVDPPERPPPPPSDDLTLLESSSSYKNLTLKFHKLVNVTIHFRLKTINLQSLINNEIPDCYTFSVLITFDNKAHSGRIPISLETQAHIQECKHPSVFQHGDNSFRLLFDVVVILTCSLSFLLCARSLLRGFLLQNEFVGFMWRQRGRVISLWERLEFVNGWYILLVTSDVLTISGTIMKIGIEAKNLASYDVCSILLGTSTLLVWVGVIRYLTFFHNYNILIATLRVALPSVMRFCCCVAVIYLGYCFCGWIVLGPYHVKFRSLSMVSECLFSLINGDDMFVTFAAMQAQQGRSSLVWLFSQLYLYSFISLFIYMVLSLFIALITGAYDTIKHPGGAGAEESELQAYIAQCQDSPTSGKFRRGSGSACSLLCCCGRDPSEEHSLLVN
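Calcium fluorescence in TRPML1-DL cells induced overnight with Tet: a 110 s read after compound pin addition, then a 110 s antagonist read after challenge with 54-4 at 4 uM final (EC80).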
TRPML1 agonist: activates the human TRPML1 channel | TRPML1-expressing cells, Ca2+ dye fluorescence, FDSS; host cell line not named in the record; reference of the full effect not given here | activation, % (no concentration beside the values) | hit rate 0.12% among 410,000 | AID 624414; in the data active = activation above about 50%; inconclusive = about 30% to 50%; inactive = below about 30%; further: 0% is about no effect; the text of the record puts the active cut at 80%
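Cells: TRPML1-DL, 1X Tet inducer, ~16 h at 37 degrees C/5% CO2. Dye: ABD Ca8 no-wash + quencher, 45-90 min RT. Read: 10 s baseline, compound add, 110 s agonist phase; 54-4 EC80 (4uM final), 110 s antagonist phase.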
Menin MLL FP FL: inhibitors of human menin-MLL interaction, wild-type MLL peptide | Fluorescence polarization, fluorescein-MLL peptide displacement from menin | FP activity change, % at 61.4 µM | 290,000 tested, under 10 active; inconclusive = falling polarisation curve, or a change in total fluorescence; inactive = total fluorescence flat and polarisation flat or rising; no compound was filed as active; the % refers to the polarisation; negative = inhibition;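 further: % of control where 0% means no effect; inhibitors lower the polarisation; unlabelled MLL peptide was the positive control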
An asterisk follows results filed as active; u = inconclusive; x = no result given; & = joins results of further samples; [ ] = another dose, or the depositor's remark. An unsorted share of the library; any-hit rate near 2.1%.

SMILES	ClpP mod	gsp ag	gsp antagonist	TRPML1 blocker	TRPML1 agonist	Menin MLL FP FL
CCNC(=O)C1CCCN(C(=O)c2ccccc2OC(F)(F)F)CC1 (stereo unspecified)	0.7%	x	x	-5	0.1	x
COc1ccccc1CN1CC(C(=O)NCCCCc2ccccn2)CCC1=O (stereo unspecified)	1.0%	-23%	x	-10	-1.2	x
O=C(CSc1ccc2ccccc2n1)NCc1ccc2c(c1)OCO2	x	-1%[15.4 µM]	-6%	0	-1.0	5.3
Cc1cc(C(=O)CSc2nnnn2-c2ccc(Cl)cc2)c(C)n1CC1CCCO1 (stereo unspecified)	1.3%	-35%	4%	-2	-0.2	5.9
COc1cccc(OC)c1C(=O)NCc1ccco1	-1.0%	-45%[inhibitor]	x	4	-1.0	x
O=C(Cn1cc([N+](=O)[O-])cn1)NCC1CCCO1 (stereo unspecified)	1.6%	-18%	12%	2	-0.6	-0.6
CCc1ccc(C(=O)C(C)OC(=O)Cn2[nH]c(=O)c3ccccc3c2=O)cc1 (stereo unspecified)	1.6%	1%	2%	24	1.7	x
CC1Cc2c([nH]c(=O)n(-c3ccccc3)c2=O)O1 (stereo unspecified)	-1.6%	-22%	6%	8	0.8	x
COc1ccc(Nc2ncc(C(=O)Nc3cccc(Cl)c3)c3ccccc23)cc1	-11%	x	x	-1	0.5	x
COCCCn1c(Cc2csc(Nc3cccc(Cl)c3)n2)nnc1SCC(=O)OC1CCCCC1	0.7%	9%	-15%	1	4.0	15
O=C(Nc1nc2ccccc2s1)Nc1ccc(F)cc1F	x	-5%	6%	4	0.2	-0.8
CC(C)Cc1cc(C(=O)Nc2c(F)cc(F)cc2Br)no1	1.5%	-6%	5%	-5	0.5	1.3
N#Cc1ccccc1S(=O)(=O)N1CCN(CC(O)CN2CCOCC2)CC1 (stereo unspecified)	0.4%	-61%[inhibitor]	9%	-8	-0.6	x
CCC(=O)NNC(=S)NC(=O)c1ccc(C)cc1	-3.2%	13%[15.4 µM]	5%	-11	-0.2	0.0
CCOC(=O)C1=C(CC)Nc2ccccc2N=C1NC(=O)c1cc(C)on1	-0.7%	-3%	-1%	1	1.5	x
CC(Oc1ccc(F)cc1)C(=O)NCC1(N(C)C)CCCCC1 (stereo unspecified)	1.6%	x	x	0	-0.6	x
O=C(O)/C=C/c1cnc[nH]1	0.0%	x	14%	-3	0.3	3.3&1.6
O=C(O)CNC(=O)CCn1nnc2ccccc2c1=O	0.5%	27%	19%	x	x	9.4
CCC(C)N(NC(C)=O)c1nc(Cl)nc(NC(C)C)n1 (stereo unspecified)	-1.6%	-16%	9%	0	0.8	-6.0
O=c1cc(Cl)nc2ccccn12	x	25%	10%	3	-0.7	x
C/C(=N\Nc1nc(C)cc(-c2ccccc2)n1)c1ccc(F)cc1	-1.2%	-19%	-12%	-1	1.6	-2.4
COC(=O)c1ccc(CNC(=O)C(Cc2ccccc2)NC(=O)c2ccccc2)cc1 (stereo unspecified)	0.8%	-23%	x	-1	-1.1	x
C=CCn1c(O)c2ccc(C(=O)N=NC(=O)COc3ccccc3F)cc2c1O	2.2%	-12%[15.4 µM]	3%	8	-0.6	x
CC(C)c1ccc2c(c1)NC(c1ccncc1)=NC(c1cccs1)=N2	-6.1%	x	x	-3	1.7	x
CSc1nc(-c2ccccc2)ccc1C(N)=O	-20%	-3%	9%	-3	3.4	-3.6
O=S(=O)(NCc1ccccn1)c1cc(Cl)ccc1Cl	x	8%	4%	-5	0.4	4.3
COc1ccc(C(=O)OCC(=O)N2CCN(C(=O)c3ccco3)CC2)cc1OC	x	31%	8%	2	-0.6	x
N#CCCC(CCC#N)C1=NCCc2ccccc21	0.1%	27%	7%	0	0.4	-0.2
CC1CC(=O)Nc2ccccc2N1S(=O)(=O)c1ccc(Cl)cc1 (stereo unspecified)	-2.3%	-9%	-1%	22	-0.8	3.3
Cc1c(C(=O)NCCSCc2ccc(Cl)cc2Cl)cccc1[N+](=O)[O-]	-2.5%	2%	-14%	-3	1.6	7.6
Cc1ccc(NC(=O)CC2NCCN(Cc3ccccc3)C2=O)cc1 (stereo unspecified)	0.6%	13%[15.4 µM]	-2%	-3	-0.2	1.0
CN(C)CCCNC(=O)c1ccc(=O)[nH]n1	-1.1%	-18%	4%	-1	0.4	-3.0
O=Nc1c(O)n(Cc2ccccc2)c2ccccc12	-1.7%	u	-8%	x	x	2.7
CC(C)c1ccc(/C=N/N2CCN(c3ccccn3)CC2)cc1	x	19%	2%	9	-0.7	2.5
COc1ccc(C(=O)COC(=O)c2cnc(C)cn2)cc1OC	-3.9%	29%	2%	4	0.0	x
COc1ccc(CC(=O)OCC(=O)NCc2ccco2)cc1	x	-33%[15.4 µM]	9%	-23	-0.2	x
COc1ccc(N2CC(NC(=O)c3ccc(OC(C)C)cc3)CC2=O)cc1 (stereo unspecified)	-1.5%	x	x	-4	-0.6	x
CN(C)c1ccc(C(c2nnnn2C(C)(C)C)N2CCN(C(=O)c3ccco3)CC2)cc1 (stereo unspecified)	-1.7%	-72%[inhibitor]	-5%	2	1.9	-1.5
CO/N=C(\c1nonc1N)N1CCN(c2ccc(Cl)cc2[N+](=O)[O-])CC1	-1.9%	17%	-14%	38	2.8	5.8
CCC1CN(C(=O)N2CCC(C(=O)N3CCN(c4ccccc4)CC3)CC2)c2ccccc2O1 (stereo unspecified)	1.2%	x	x	28	4.4	x
Cc1cc(C([O-])=C(C(=S)Nc2ccccc2)[n+]2ccccc2)c(C)n1-c1ccccc1	x	x	0%	-4	0.8	x
COc1cccc(CNC(=O)CCC2CCCN(C(=O)c3csc(C(C)C)n3)C2)c1 (stereo unspecified)	x	5%	-4%	-13	-0.4	-4.1
COc1cc(N=C2C(=O)N3CCCc4cccc2c43)cc(OC)c1	-9.6%	11%	9%	-5	0.3	6.2
CC(Sc1nc(C(C)(C)C)cc(-c2ccccc2)c1C#N)C(=O)Nc1ccccc1 (stereo unspecified)	-2.4%	-40%[inhibitor]	20%	3	0.1	0.5
O=C1C2C3CCC(O3)C2C(=O)N1c1nccs1 (stereo unspecified)	x	-11%	12%	1	-0.3	x
O=S(=O)(c1ccc(-c2ccccc2)cc1)N1CCCCC1	0.0%	4%[15.4 µM]	-1%	-9	-0.1	-3.0
N/C(=N\OC(=O)c1cccc(Br)c1)c1ccc(Br)cc1	-3.6%	-33%[inhibitor]	9%	-2	0.2	5.3
CC(=O)c1c(C)[nH]c(C(=O)OCCCCN2C(=O)c3ccccc3C2=O)c1C	-1.2%	-32%[inhibitor]	u	23	0.5	4.3
CCN(C(=O)CN1C(=O)NC(c2ccccc2)(c2ccc(C)c(C)c2)C1=O)C1CCS(=O)(=O)C1 (stereo unspecified)	0.8%	7%	8%	14	-0.4	x
COC(=O)c1ccc(/C=N/NC(=S)NCCN2CCOCC2)cc1	x	0%[15.4 µM]	-10%	16	1.7	-3.5
CCOC(=O)CSC1=C(C#N)C(c2ccc3c(c2)OCO3)CC(=O)N1 (stereo unspecified)	1.7%	25%	-8%	9	-1.0	1.1
CCc1cccc(NC(=O)COc2cc(=O)n(CC)c3ccccc23)c1	-6.2%	x	x	4	0.8	x
CC(C)N(C(=O)CSc1nnc(NC(=O)Cc2cccs2)s1)C(C)C	-1.3%	-39%	4%	-16	1.1	0.1
Cc1csc(N(C(=O)c2ccccc2F)c2ccccc2)n1	x	-1%	-7%	6	0.4	3.0
COc1ccc([C@H]2CC(=O)C=C(c3ccc4c(c3)OCO4)C2)cc1OC	-7.6%	u	-7%	-14	0.1	x
Cc1ccc(C(=O)Cn2c(C(=O)O)cc3ccccc32)cc1	x	u	-8%	36	0.7	-2.3
O=C(CSc1ncccn1)NN=C1CCCCCC1	-0.4%	u	-6%	-1	1.3	0.8
COc1ccc(Cl)cc1NC(=O)CSc1nc(-c2ccco2)cc(C(F)(F)F)n1	-8.7%	x	x	5	0.0	x
O=c1cc(CN2CCC(Cc3ccccc3)CC2)nc2sccn12	x	4%	11%	-2	0.5	1.5
Cc1cccc(NS(=O)(=O)c2ccc([N+](=O)[O-])cc2)n1	-1.9%	-2%[15.4 µM]	7%	17	0.5	-4.5

Whole records, quoted from the list. Screens in order: ClpP mod, gsp ag, gsp antagonist, TRPML1 blocker, TRPML1 agonist, Menin MLL FP FL
CCc1cccc(NC(=O)COc2cc(=O)n(CC)c3ccccc23)c1 in the list: -6.2%, x, x, 4, 0.8, x
CC(=O)c1c(C)[nH]c(C(=O)OCCCCN2C(=O)c3ccccc3C2=O)c1C in the list: -1.2%, -32%[inhibitor], u, 23, 0.5, 4.3

Going on with the list.
SMILES	ClpP mod	gsp ag	gsp antagonist	TRPML1 blocker	TRPML1 agonist	Menin MLL FP FL
COc1ccc(N(CC(=O)NC2CCCCCCC2)S(=O)(=O)c2c(C)nn(C)c2C)cc1	2.6%	9%	0%	-9	0.4	4.2
CCC(=O)N1CCN(c2ccc(NC(=O)c3ccc(C#N)cc3F)cc2Cl)CC1	x	-7%	-8%	-5	-0.4	-5.2
COc1ccc(NC(=O)CSCC(=O)N2CCN(C(=O)c3ccco3)CC2)cc1	0.3%	-10%	4%	-1	0.3	x
COc1ccc(-c2csc(N(CCCN3CCOCC3)C(=O)CCl)n2)cc1	x	-5%	9%	-8	0.1	-0.4
Cc1c(C#N)c2ccccc2n1CC(=O)N1CCc2ccccc2C1	0.3%	-21%	-17%	-3	1.6	-2.0
CCOC(=O)NC(=O)CSc1nnc(C)s1	-1.6%	8%	5%	16	-0.5	0.2
Cc1ccc(CN2CCN(/N=C/c3sccc3C)CC2)c(C)c1	28µM*	-2%	-3%	55	1.2	2.6
O=C(NC1CCN(Cc2ccccc2)CC1)c1ccccc1NS(=O)(=O)c1ccc(F)c(F)c1	-1.1%	-14%	-23%	18	0.0	x
Cn1c(SCCc2ccc([N+](=O)[O-])cc2)nccc1=O	x	58%	-7%	0	2.0	x
CC1CCc2c(sc(NC(=O)c3ccc(Cn4cc(Br)cn4)o3)c2C(N)=O)C1 (stereo unspecified)	11%	8%	1%	9	1.0	2.1
CSc1nnc(SCc2nc3sc(C(=O)O)c(C)c3c(=O)[nH]2)s1	x	-9%[15.4 µM]	-5%	3	1.1	u
COCc1ccc(C(=O)Nc2ccc(C(=O)O)cc2)o1	-2.9%	-107%[inhibitor]	-7%	29	0.7	1.5
CCOc1ccccc1NS(=O)(=O)c1ccc(N2CCCCS2(=O)=O)cc1	-22%	x	x	-2	1.7	x
COc1nc(-c2ccc(C)cc2)ccc1-c1noc(-c2ccco2)n1	28µM*	9%	-3%	10	-0.7	8.9
O=C(Nc1cccc2ncccc12)C(c1ccccc1)c1ccccc1	-5.3%	-15%	-13%	-9	1.0	0.6

Screens: PubChem BioAssay, National Center for Advancing Translational Sciences (NCATS)
